Bioassay records: PubChem BioAssay, National Center for Advancing Translational Sciences (NCATS)
2A StopGo – FMDV 2A StopGo reporter, luciferase signal; human cells with a luciferase reporter of 2A StopGo recoding; control for the full effect not named in the record; Potency, µM (titrated, usually from 57.9 µM), for inactives: top-dose signal change, negative = less light; 410,000 tested, 1.2% active; AID 1159524; active = well fitted falling curve with a large enough effect; inconclusive = small, poorly fitted or top-dose-only effect; inactive = no such curve, though single readings can be large or run the other way; tested in HEK293T cells; note: % is set by controls: 0 for no effect and ±100 for the full control effect; nearly all actives have a fitted effect of over 45% in size; luciferase light after 4 h
Marburg entry inh – blocks Marburg virus binding to or entry into cells; Potency, µM (top dose mostly 37.8 µM), inactives show at the highest dose activity change, negative = inhibition, actives largely listed as inhibitors; Marburg virus pseudotyped entry inhibition, cell reporter; control for the full effect not named in the record; about a third of the inactives were read at about 46 µM; 300,000 tested, 1.8% active; active = well fitted inhibition curve with a large enough effect; inconclusive = small, poorly fitted or top-dose-only effect, or effect the other way; inactive = flat fitted curve, though single readings scatter; tested in HEK293 cells; about a fifth of its hits are not listed in these tables; note: % is set by controls: 0 for no effect and ±100 for the full control effect; luciferase read-out
RE007 growth inh – less growth of the S. pombe RE007 Vpr strain; S. pombe RE007 Vpr strain, BacTiter-Glo ATP luminescence, 24 h; control for the full effect not named in the record; Potency, µM (doses to about 92.2 µM), for inactives: at the highest dose activity change, negative = less growth; 360,000 tested, 0.21% active; AID 651644; active = well fitted falling curve with a large enough effect; inconclusive = small, poorly fitted or top-dose-only effect; inactive = no such curve, though single readings can be large or run the other way;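 note: % is set by controls: 0 for no effect and ±100 for the full control effect; nearly all actives have a fitted effect of over 50% in size; the assay follows cell death caused by Vpr and the record does not say whether a fall means rescue or toxicity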
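Fission yeast strain RE007, carrying one chromosomally integrated HIV-1 vpr copy, was seeded at OD 0.01 in PMG+AL medium with 23 nL pinned compound. After 24 h at 30 °C and 99% humidity, viability was read by BacTiter-Glo luminescence.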
SARS PLpro yeast – blocks SARS-CoV papain-like protease in a yeast assay; S. cerevisiae expressing SARS-CoV PLpro, growth rescue; control for the full effect not named in the record; Potency, µM (doses to about 32.9 µM), inactives show top-dose activity, positive = growth rescue; 330,000 tested, 0.19% active; note: 0% is about no effect; nearly all actives have a fitted effect of over 55% in size; growth read by luminescence after 48 h
Lassa entry inh – blocks Lassa virus binding to or entry into cells; Lassa virus pseudotype entry inhibition, cell reporter; control for the full effect not named in the record; Potency, µM (doses to about 37.9 µM), inactives show top-dose activity change, negative = inhibition, hits mostly inhibitors; AID 540256; 300,000 tested, 1.2% active; active means well fitted inhibition curve with a large enough effect; inconclusive means small, poorly fitted or top-dose-only effect, or effect the other way; inactive means flat fitted curve, though single readings scatter; tested in HEK293 cells; note: % is set by controls: 0 for no effect and ±100 for the full control effect; nearly all actives have a fitted effect of over 50% in size; luciferase read-out
Cruzain inh noDet – cruzain (T. cruzi) inhibition without detergent; P25779; purified cruzain, Z-FR-AMC fluorescence, no detergent; 200,000 tested, 2.3% active; AID 1476; Potency, µM, for the others: max response, negative = inhibition, actives largely listed as inhibitors; active = well fitted curve in the direction sought with a large enough effect; inconclusive = small, poorly fitted or top-dose-only effect, or another doubt; inactive = no such curve, though single readings can be large; an effect the other way counts as inactive or inconclusive;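 note: plate controls were enzyme without inhibitor for no effect and buffer without enzyme for full effect; nearly all actives have a fitted effect of over 40% in size; top concentration of the series not given in the record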
Target sequence (P25779 123-467 limits assumed): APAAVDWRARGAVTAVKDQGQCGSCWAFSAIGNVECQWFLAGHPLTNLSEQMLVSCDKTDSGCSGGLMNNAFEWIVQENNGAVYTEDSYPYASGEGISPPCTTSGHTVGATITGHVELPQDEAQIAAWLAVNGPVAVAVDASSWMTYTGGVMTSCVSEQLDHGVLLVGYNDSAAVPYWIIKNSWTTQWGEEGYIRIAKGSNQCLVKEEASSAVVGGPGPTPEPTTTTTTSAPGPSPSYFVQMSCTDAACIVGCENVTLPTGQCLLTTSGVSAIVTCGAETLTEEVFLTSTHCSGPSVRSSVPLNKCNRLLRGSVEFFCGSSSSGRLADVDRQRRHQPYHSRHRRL
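Purified cruzain at 1.5 nM, pre-incubated 15 min with compound at room temperature in 100 mM sodium acetate pH 5.5, 5 mM DTT, 0.00005% Triton X-100. Reaction started with 2 uM Z-FR-AMC; AMC fluorescence increase over 60 s gives rate.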
Cruzain inh Det – inhibitors of Trypanosoma cruzi cruzain with detergent. AID 1478. purified cruzain, Z-FR-AMC fluorescence, 0.01% Triton. Potency, µM, without a hit: max response, negative = inhibition, usual class: inhibitors. 200,000 tested, 0.43% active; active = well fitted curve in the direction sought with a large enough effect; inconclusive = small, poorly fitted or top-dose-only effect, or another doubt; inactive = no such curve, though single readings can be large; an effect the other way counts as inactive or inconclusive;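 note: plate controls were neutral wells for no effect and buffer without enzyme for full effect; nearly all actives have a fitted effect of over 40% in size; top concentration of the series not given in the record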
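Detergent-containing arm of a paired screen for aggregation-based inhibition: 0.01% Triton X-100 present. Cruzain at 1.5 nM cleaved 2 uM Z-FR-AMC at pH 5.5 with 5 mM DTT; AMC fluorescence gain over 60 s measured activity.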
NS1 function inh – blocks influenza NS1 protein function. S. cerevisiae slowed by influenza A NS1, growth recovery by OD600. Potency, µM (series often up to 46.1 µM), inactives show top-dose activity, positive = more growth. 270,000 tested, 0.4% active. AID 2326; note: actives are rising curves; nearly all actives have a fitted effect of over 50% in size
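In this qHTS, NS1 from influenza A is expressed in budding yeast, where it slows growth. Cells are switched from glucose to 2% galactose medium (pH 6.0, -URA), treated with compound, and growth recovery is read at OD600.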
Active calls of the source: *; ? = inconclusive; / = not tested or not shown; & = joins results of further samples; [ ] = another dose, or the depositor's remark. Unless noted, calls come from the whole dose curve; as a rule, active means well fitted rising curve with a large enough effect; inconclusive means small, poorly fitted or top-dose-only effect; inactive means no such curve, though single readings can be large or run the other way. Potency is the fitted concentration of half-maximal effect. This is a random part of the collection, and some 4.5% of all compounds hit somewhere here.

SMILES	Cruzain inh noDet	Cruzain inh Det	Lassa entry inh	SARS PLpro yeast	Marburg entry inh	NS1 function inh	RE007 growth inh	2A StopGo
Cc1nccc(-c2cccc(NC(=O)Nc3ccc(Cl)cc3)c2)n1	/	/	?	0.0%	-4.5%	2.9%	-14.9%	38.1%[activator]
CCn1cc(S(=O)(=O)CC(=O)Nc2ccc(C)cc2)c2ccccc21	-7.9%	-2.7%	-0.6%	7.2%	0.4%	-4.8%	-8.4%	38.7%[activator]
COc1ccccc1CC1(C)NC(=O)N(CC(=O)N2CCc3ccccc3C2)C1=O (configuration not stated)	25.9%	3.2%	5.7%	2.8%	?	-6.7%	-3.2%	-4.1%
O=C1N=C(N2CCN(c3cccc4ccccc34)CC2)S/C1=C/c1cccs1	20µM*	-9.8%	-27.2%	-1.5%	?	7.3%	-0.2%	-28.1%
Cc1ccc(Cl)cc1N1CCN(CC(=O)Nc2ccc(CN3CCCCC3)cc2)CC1	0.9%	-0.7%	?	-17.5%	?	-7.0%	7.2%	?
Cc1cccc(CNC(=O)c2ccc3nc(Cc4ccccc4F)oc3c2)n1	/	/	-4.4%	28.5%	17.5%	-27.2%	-7.6%	5.3%
COc1cccc(/C=C/C(=O)c2ccc3c(c2)OCO3)c1OC	/	/	14.4%	-1.7%	-18.4%	/	-0.4%	26.2%
C=CC(=O)NC(C)(C)CCN1CCOCC1	/	/	4.7%	1.5%	6.5%&6.5%[46.1 µM]	0.3%	-10.4%	-7.6%
CCOC(=O)CCNCC1COc2ccccc2O1 (configuration not stated)	-3.3%	3.6%	1.4%	-5.3%	-13.4%	-3.9%	15.9%	-21.9%
CCOC(=O)c1c(C)[nH]c(CCC(=O)NCc2cc(OC)c(OC)c(OC)c2)c1C	-11.1%	2.8%	4.9%[46.1 µM]	/	/	/	/	-14.7%
O=C(CCN1C(=O)C2CCCCC2C1=O)Nc1ccc(Br)cc1F (configuration not stated)	/	/	-11.5%	-1.7%	2.8%[46.1 µM]	/	-17.7%	-2.1%
CCc1cc(C(=O)N2CCN(c3ncccn3)CC2)sc1C	/	/	?	-2.5%	?	/	3.8%	-17.1%
O=C(CN1C(=O)C2CC=CCC2C1=O)OCc1cc(=O)n2cc(Br)ccc2n1 (configuration not stated)	/	/	0.3%[46.1 µM]	-7.4%	13.2%[46.1 µM]	1.8%	2.9%	-11.3%
C[C@]12CC[C@@H]3c4ccc(O[C@@H]5O[C@H](C(=O)O)[C@@H](O)[C@H](O)[C@H]5O)cc4CC[C@H]3[C@@H]1C[C@@H](O)[C@@H]2O	/	/	/	1.2%	6.9%	-5.1%	10.9%[18.4 µM]	-9.1%
O=C(Nc1ccc(-c2nc3ccccc3s2)c(OC(=O)c2ccccc2)c1)c1ccccc1	25.1µM*	-5.7%	?	-9.1%	?	20.2%	2.9%	23.4%
COc1ccc(Cc2nc3c4cnn(-c5cccc(F)c5)c4ncn3n2)cc1	-12.3%	-0.8%	1.2%[46.1 µM]	/	24.0%[46.1 µM]	/	/	-11.0%
Cc1nn(Cc2cccc(C(=O)Nc3ccn(Cc4ccccc4F)n3)c2)c(C)c1[N+](=O)[O-]	-15.3%	-2.8%	12.7%	0.8%	?	3.5%	-6.3%	-27.7%
Cc1c(NC(=O)COC(=O)c2ncc(Cl)c(Cl)c2Cl)c(=O)n(-c2ccccc2)n1C	/	/	14.8%[46.1 µM]	-1.5%	6.7%	/	-4.8%	0.7%
C=CCNC(=O)c1ccc(CN(c2ccc(OCC)cc2)S(=O)(=O)c2ccc(C)cc2)cc1	/	/	/	-5.7%	/	6.1%	18.1%	-2.2%
COc1ccc(/C=N/n2cnc3c([nH]c4ccc(F)cc43)c2=O)cc1CN1CCCC1	/	/	/	-0.1%	/	-3.6%	0.5%	-4.6%
O=c1[nH]c(=S)[nH]cc1Oc1ccccc1	/	/	0.0%[46.1 µM]	/	11.0%[46.1 µM]	/	1.2%	-7.9%
O=C(NC1CCCC1)C(c1cccnc1)N(Cc1ccccc1)C(=O)c1csnn1 (configuration not stated)	/	/	-15.3%	-7.3%	12.6%[46.1 µM]	2.7%	-14.9%	3.7%
CCN(CC)S(=O)(=O)c1ccc2c(c1)nc(SC(C)C(=O)NCC1CCCO1)n2CC (configuration not stated)	/	/	?	-3.2%	3.1%	-7.7%	-6.0%	-12.3%
O=c1c2ccccc2nc2n1-c1ccccc1CCC2	-7.7%	-0.9%	-7.8%	-2.7%	-5.3%	-7.1%	9.5%	-15.0%
CCc1ccc(C(=O)Nc2cc3c(cc2Cl)OCCCO3)cc1	2.6%	-9.3%	?	-4.1%	?	7.5%	-7.8%	41.6%[activator]
CCc1ccc(N=c2c([N+](=O)[O-])nn(-c3ccc4c(c3)OCCO4)n2O)cc1	/	/	4.3%	2.0%	23.1%[46.1 µM]	/	18.6%	2.4%
COc1ccccc1N1C(=O)c2cccc3cccc(c23)C1=O	/	/	/	7.8%	/	20.5%	-0.9%	-19.9%
CCOC(=O)c1cc(CC)sc1NC(=O)COC(=O)c1cc[n+]([O-])cc1	/	/	8.9%[46.1 µM]	-0.6%	3.9%[46.1 µM]	3.7%	-16.9%	-4.8%
Cc1cc(-c2onc(C)c2C(=O)Oc2ccc(Cl)cc2)no1	/	/	/	-0.1%	/	-11.9%	-12.7%	?
O=C(N/N=C/c1ccco1)c1cc(C2CC2)nc2ccccc12	-4.1%	0.5%	?	-7.1%	-35.6%	3.2%	/	/
COc1ccc(CC(=O)NCc2cn3ccsc3n2)cc1	?	1.8%	21.4%	-1.4%	-3.1%	10.2%	-15.0%	-16.4%
Cc1[nH]c(SCC(=O)Nc2cc(C(N)=O)cc(C(N)=O)c2)nc1Cc1ccccc1	/	/	2.3%[46.1 µM]	4.5%	3.4%[46.1 µM]	/	14.1%	16.8%
Cc1ccc(Sc2c(C=O)c3ccccc3n2C)cc1	-2.3%	0.2%	?	-20.1%	?	-18.4%	-4.1%	?
Cc1noc(C)c1COc1ccc(C(=O)N2CCN(c3ccccc3F)CC2)cc1	/	/	-1.3%	-1.0%	?	/	13.3%	-8.0%
CCn1ncc(Br)c1C(=O)Nc1cc([N+](=O)[O-])ccc1C	-6.6%	-3.6%	4.7%	-11.4%	5.8%	-14.1%	-17.0%	-29.6%
CCCSc1ncc(Cl)c(C(=O)Nc2ccc(S(=O)(=O)Nc3ncccn3)cc2)n1	-1.8%	-1.7%	-2.0%	7.1%	?	7.9%	3.2%	1.3%&-13.9%
CC(C)(CO)NCC(O)COc1ccc2c(c1)CCC2 (configuration not stated)	-0.7%	0.1%	-13.6%	-0.5%	-5.0%	7.6%	2.0%	-22.2%
CC(C)S(=O)(=O)N1CCCC(C(=O)c2cccc(Cl)c2)C1 (configuration not stated)	/	/	?	-1.8%	-3.0%[46.1 µM]	-3.3%	2.2%	-15.8%
COc1ccc(OC)c(NC(=O)C2CCCC2)c1	-7.7%	-4.5%	-2.9%	6.5%	7.2%	0.3%	-13.7%	10.9%
CSc1nc(N(C)C)nc(N2CC(=O)N(CCNS(=O)(=O)c3ccc(C)cc3)C2=N)n1	9.3%	0.3%	1.6%	3.9%	-19.1%	6.5%	5.0%	17.9%
O=C(Oc1cccc([N+](=O)[O-])c1)c1cc(-c2ccccc2)nc2ccccc12	-8.8%	8.2%	23.4%	-3.1%	13.6%	3.9%	-4.6%	?
CN1CCc2c(sc(/N=C/c3cc(C(C)(C)C)ccc3O)c2C#N)C1	/	/	25.1%[46.1 µM]	-1.8%	8.6%[46.1 µM]	6.5%	-12.2%	-20.8%
O=C(COC(=O)Cn1cnc2ccccc2c1=O)NCCC1=CCCCC1	6.6%	-3.0%	?	19.7%	18.3%	-42.6%	-11.2%	-16.7%
Cc1sc2ncnc(N3CCC(C(=O)N(C)CC(=O)Nc4ccccc4Br)CC3)c2c1C	/	/	-26.7%	-5.0%	?	-9.7%	12.0%	?
Cc1ccc(C)c(SCC(=O)OCC(=O)NCc2ccccc2)c1	/	/	18.9%[46.1 µM]	-0.3%	-0.1%[46.1 µM]	/	-12.9%	-4.3%
COc1ccccc1NC(=O)C(C/C=C(/C)Cl)C(C)=O (configuration not stated)	7.6%	-1.0%	-3.2%	-2.6%	-4.1%	0.2%	-22.3%	-22.1%
CC1=C(C)CC(C(=O)c2ccccc2)C(C(=O)O)C1 (configuration not stated)	-2.4%	8.5%	24.1%	-7.1%	3.2%	-39.0%	16.1%	8.3%
COc1ccc2nc(NC(=O)c3nc(S(=O)(=O)Cc4cccc(C)c4)ncc3Cl)sc2c1	21.4%	-7.6%	?	/	?	/	/	?
Nc1nnc(SCc2ccccc2F)s1	/	/	/	0.0%	/	-53.5%	5.5%	17.6%
O=C(c1ccc(Br)o1)N1CCN(C/C=C/c2ccccc2)CC1	5.2%	4.9%	-23.0%	-3.2%	-18.0%	2.1%	-8.1%	0.0%
O=C(OCc1cc(=O)n2ccsc2n1)c1ccc(OC(F)F)cc1	/	/	-14.2%	-2.9%	1.1%	/	10.7%	0.7%
O=C(COC(=O)c1ccccc1NCCO)Nc1cccc(S(=O)(=O)NC2=NCCCCC2)c1	/	/	7.1%	-5.5%	-7.4%[46.1 µM]	/	6.0%	-22.7%
Cc1cccc(N2C(=O)CC(N3CCC(c4nc5ccccc5[nH]4)CC3)C2=O)c1 (configuration not stated)	1.3%	2.7%	2.7%	-35.2%	29.3%	-93.9%	28.2µM*	2.8%
CSc1ccc(CCNC(=O)c2nn(C)c3c2CS(=O)(=O)c2ccccc2-3)cc1	/	/	/	?	/	-1.4%	-3.8%	?
